Screening data: PubChem, Broad Institute
STK33 kinase inh = inhibitors of purified STK33 kinase, primary screen, biochemical, ADP-Glo luminescence, homogeneous, cell-free | Serine/threonine-protein kinase 33 (Homo sapiens), Q9BYT3 | MBP phosphorylation | inhibition, % at 10 µM | 320,000 tested, 0.073% active;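 active means inhibition at or above 25%, using the most active replicate where run in duplicate; inactive means inhibition below 25%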
Target sequence (Q9BYT3 whole entry, looked up): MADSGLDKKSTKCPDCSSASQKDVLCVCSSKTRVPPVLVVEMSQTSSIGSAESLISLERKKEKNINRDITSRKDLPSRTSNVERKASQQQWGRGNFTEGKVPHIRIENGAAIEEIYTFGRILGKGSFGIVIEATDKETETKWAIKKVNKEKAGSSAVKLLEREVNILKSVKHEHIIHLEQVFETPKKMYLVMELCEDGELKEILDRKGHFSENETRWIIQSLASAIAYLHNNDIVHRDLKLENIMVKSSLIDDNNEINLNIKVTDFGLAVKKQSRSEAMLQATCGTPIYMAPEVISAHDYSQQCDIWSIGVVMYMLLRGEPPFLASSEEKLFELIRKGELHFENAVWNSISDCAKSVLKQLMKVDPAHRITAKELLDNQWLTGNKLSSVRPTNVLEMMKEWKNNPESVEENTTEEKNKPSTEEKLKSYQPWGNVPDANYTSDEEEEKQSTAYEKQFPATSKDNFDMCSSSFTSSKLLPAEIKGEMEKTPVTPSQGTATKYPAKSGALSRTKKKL
* marks the source's active call; other numbers are inactive results. These rows are one share of the data; most or all hits stand in other tables.

Structure,STK33 kinase inh
O=C(NCC1CCN(c2ccc(S(=O)(=O)N3CCOCC3)cc2)CC1)c1ccc(Cl)cc1,0.4
CCCCN(Cc1ccccc1)C(=O)c1cnc2n(c1=O)CCS2,-1.9
Cn1c(C(=O)NCCCN2CCN(c3ccccc3F)CC2)cc2c(=O)n(C)c3ccccc3c21,-0.5
Cc1cc(S(=O)(=O)NCc2ccco2)c(C)cc1Cl,-4.1
Cc1ccccc1NC(=O)c1cc(=O)c2ccccc2o1,0.3
CC(C)CN1CCN(Cc2cccc3cccnc23)CC1CCO (stereo not given),0.0
COc1cc2c(cc1OC)/C(=C/c1ccc(Cl)cc1)C(=O)OC2,-0.3
CSc1nnc(-c2sccc2OCc2ccc(C)cc2)n1C,0.0
Cc1ccc(N=C2NC(=O)CS2)c(C)c1,-0.6
COc1cccc(NC(=O)c2cc(C(=O)Nc3cccc(OC)c3)n(C)n2)c1,-0.2
COC(=O)N1C(=O)[C@](c2ccc(OC)cc2)(C(C)C)N1C(=O)OC,-0.7
O=C(COC(=O)CCS(=O)(=O)c1ccc(Cl)cc1)Nc1ncc(Cl)cc1Cl,0.5
CCOC(=O)c1sc2nc(C)cc(C)c2c1NC(=O)c1ccco1,-0.5
Cc1ccc(Cn2nnc3c(=O)n(CC(=O)c4ccccc4)cnc32)cc1,-1.8
C=CCn1c2ccccc2c2nn(C)c(=S)nc21,-0.8
CCCCn1nc(C(=O)NC2=NCCS2)c2ccccc2c1=O,0.9
CCCc1cc(=O)oc2cc(OCC(=O)NCCCn3ccnc3)ccc12,0.6
CCC(=O)Nc1cccc(-c2ccc(N3CCC(C)CC3)nn2)c1,0.8
Cc1cc(Cl)c2oc(C(=O)N(C)Cc3cc(C)[nH]n3)c(C)c2c1,5.6
Cc1ccccc1CSc1nc2ccccc2c(=O)[nH]1,-0.7
Cc1ccc(CNC(=O)C2CCC(CNS(=O)(=O)c3cccc4cccnc34)CC2)cc1 (stereo not given),0.9
COC(=O)c1cccc(NC(=O)Nc2ccccc2OC)c1,0.9
COc1ccc2cc(C(=O)N(C)Cc3ccccc3)[nH]c2c1,-1.1
Cc1ccc(N2C(=O)c3ccc(C(=O)O)cc3C2=O)cc1C,0.4
COc1ccc(NC(=O)Cc2ccccc2)cc1,-0.2
Cc1ccc(OCC(=O)Nc2cc(-c3nn4c(C)nnc4s3)ccc2C)cc1,-1.3
CC(=O)c1ccc(NC(=O)CCc2nc3sc4c(c3c(=O)[nH]2)CCCC4)cc1,-0.1
COCCN(C(=O)COC(=O)c1cc2c(s1)CCC2)c1c(N)n(Cc2ccccc2)c(=O)[nH]c1=O,-0.9
Cc1ccc(-c2nnn(CC(=O)N(CC(=O)NC3CCCC3)c3ccc(F)cc3)n2)o1,0.4
Nc1nc(Nc2ccccc2F)nc(N2CCCC2)c1[N+](=O)[O-],12
CC(C(=O)NN)c1ccc([N+](=O)[O-])cc1 (stereo not given),-0.1
Cc1cc(C)c(C(=O)CC(=O)c2ccccc2Cl)c(O)c1,-0.2
Cc1ccc(C)c(S(=O)(=O)N2C(=S)NC(=O)C2C(C)C)c1 (stereo not given),-2.6
CCCOC(=O)Cc1c(O)c2ccccc2[nH]c1=O,0.7
CC(C)CC(NC(N)=O)C(=O)OCC(=O)NC(=O)NC1CCCC1 (stereo not given),-2.1
Cn1c(=O)n(CC(=O)N2CCN(c3nnc(-c4ccccc4)c4ccccc34)CC2)c2ccccc21,-0.1
FC(F)(F)Oc1ccc(Nc2nc3ccccc3o2)cc1,-1.5
Cc1cc(C)c(S(=O)(=O)N2CCCCC2CCNC(=O)C(=O)NCc2cccnc2)c(C)c1 (stereo not given),0.9
CSCCC(NC(=O)c1ccc(Cl)cc1Cl)C(=O)OC1CCCCC1=O (stereo not given),-2.5
CCOC(=O)Cc1csc(NC(=O)CSc2nnc(C(C)C)n2C)n1,-0.2

Rewritten with each value named: two of the compounds above.
Nc1nc(Nc2ccccc2F)nc(N2CCCC2)c1[N+](=O)[O-]
  STK33 kinase inh: 12
CC(C(=O)NN)c1ccc([N+](=O)[O-])cc1 (stereo not given)
  STK33 kinase inh: -0.1

Additional compounds follow.
Structure,STK33 kinase inh
Cc1ccc(NC(=O)C2CC(=O)N(Cc3ccccc3)C2)cc1S(=O)(=O)N1CCCCCC1 (stereo not given),-0.5
CS(=O)(=O)N1CCCC(C(=O)NCc2ccc(F)cc2Cl)C1 (stereo not given),-1.8
Cc1ccc(S(=O)(=O)N(Cc2ccccc2)Cc2ccco2)cc1,-1.1
CC1(C)NC(=O)N(CC(=O)O)C1=O,0.1
O=C(CSc1ccccn1)Nc1cccc([N+](=O)[O-])c1,-0.5
COc1ccc(CNC(=O)CN(C(=O)CCC(=O)Nc2nccs2)c2ccccc2C)cc1,-1.0
O=c1cc(-c2ccccc2)[nH]n1-c1nc2ccccc2s1,-1.3
CCn1c(C)nnc1SCC(=O)Nc1ccc(C(C)=O)cc1,-2.9
COc1cccc(CNS(=O)(=O)c2cc3c4c(c2)CCC(=O)N4CCC3)c1,-2.2
CN(C)c1cccc(C(=O)OCC(=O)NCc2ccco2)c1,-1.8
O=C(Nc1ccc2c(c1)C(=O)NC2=O)c1ccc(Cl)s1,-0.1
CCO/C=C1/C(=O)N(C)C(=O)c2cc(OC)ccc21,-1.7
COCCn1c(SCC(=O)NC2CC2)nnc1-c1ccco1,0.2
COc1ccc(NC(=O)Cn2nc(C)c([N+](=O)[O-])c2C)cn1,-0.1
CCCNC(=O)N1C2=NC(C(=O)OC)=C(C(=O)OC)[C@@H]3N(Cc4ccccc4)c4ccccc4[C@]23C[C@H]1CO,1.0
CCc1nn(CCCC(=O)NCc2ccccc2C)c(=O)c2cc3occc3n12,-0.2
COc1ccc(-c2csc(NC(=O)c3ccc(OCC(=O)N4CCOCC4)c(OC)c3)n2)cc1,0.5
CCOC(=O)CON1C(=O)C(=O)N(OCC(=O)OCC)[C@H]2CCCC[C@H]21,-1.0
O=C1COC(c2ccccc2)=CN1Cc1ccccc1,-0.6
O=C(NCc1ccc(N2CCCC2=O)cc1)c1ccc(F)cc1,-1.0

Sorted by molar mass (ascending): 15 of the compounds above.
Structure,STK33 kinase inh
CC1(C)NC(=O)N(CC(=O)O)C1=O,0.1
O=C1COC(c2ccccc2)=CN1Cc1ccccc1,-0.6
O=C(CSc1ccccn1)Nc1cccc([N+](=O)[O-])c1,-0.5
O=c1cc(-c2ccccc2)[nH]n1-c1nc2ccccc2s1,-1.3
CN(C)c1cccc(C(=O)OCC(=O)NCc2ccco2)c1,-1.8
COc1ccc(NC(=O)Cn2nc(C)c([N+](=O)[O-])c2C)cn1,-0.1
O=C(Nc1ccc2c(c1)C(=O)NC2=O)c1ccc(Cl)s1,-0.1
O=C(NCc1ccc(N2CCCC2=O)cc1)c1ccc(F)cc1,-1.0
CCn1c(C)nnc1SCC(=O)Nc1ccc(C(C)=O)cc1,-2.9
CS(=O)(=O)N1CCCC(C(=O)NCc2ccc(F)cc2Cl)C1 (stereo not given),-1.8
COc1cccc(CNS(=O)(=O)c2cc3c4c(c2)CCC(=O)N4CCC3)c1,-2.2
COc1ccc(CNC(=O)CN(C(=O)CCC(=O)Nc2nccs2)c2ccccc2C)cc1,-1.0
Cc1ccc(NC(=O)C2CC(=O)N(Cc3ccccc3)C2)cc1S(=O)(=O)N1CCCCCC1 (stereo not given),-0.5
COc1ccc(-c2csc(NC(=O)c3ccc(OCC(=O)N4CCOCC4)c(OC)c3)n2)cc1,0.5
CCCNC(=O)N1C2=NC(C(=O)OC)=C(C(=O)OC)[C@@H]3N(Cc4ccccc4)c4ccccc4[C@]23C[C@H]1CO,1.0

(list continues)
Structure,STK33 kinase inh
CSc1cccc(NC(=O)C(C)NS(=O)(=O)c2ccc(F)cc2)c1 (stereo not given),2.2
CCCCN(CCCC)S(=O)(=O)c1ccc(NC(=O)c2ccc([N+](=O)[O-])cc2Cl)cc1,-1.3
Cc1cc2nnc(SCC(=O)N3CCCCC3)n2c(N)n1,5.8
CN(C)C=NC(=O)c1cc(C(=O)c2ccc(Cl)cc2)c[nH]1,-0.9
O=S(=O)(c1ccc(Cl)cc1)N1CCC(N2CCOCC2)CC1,1.8
Cc1cccc(N(C(=O)c2snc(C(N)=O)c2N)C(C(=O)NCC2CCCO2)c2ccc(N(C)C)cc2)c1C (stereo not given),-0.4
CC(=O)Nc1ccccc1NC(=O)c1ccccc1,-0.3
O=C(O)c1cccc(N2C(=O)c3ccc(C(=O)c4cccc([N+](=O)[O-])c4)cc3C2=O)c1,0.1
O=C(NCCC1CCCCN1S(=O)(=O)c1ccccc1)C(=O)NCC1CCCO1 (stereo not given),-1.4
CCC(=O)Nc1ccc(C(=O)OCC(=O)c2ccc(C)c([N+](=O)[O-])c2)cc1,-5.9
CCc1cccc2c1NC1(CCCC1)CC2C (stereo not given),-1.5
COC(=O)c1sccc1NC(=O)CSc1cc(Cl)ccc1Cl,-1.4
CCn1cc(/C=N/NC(=O)c2cc3c(ccc4ccccc43)o2)c2ccccc21,-1.0
O=C(Nc1ncc2c(n1)-c1ccccc1CC2)c1cccc(Cl)c1,3.1
O=C(c1ccccc1)c1nn(-c2ccc(Cl)cc2)cc1C(=O)c1cc2ccccc2oc1=O,6.9
Cc1cc(C)c(C)c(S(=O)(=O)NCc2ccc(C(=O)N3CCCCC3)cc2)c1C,-1.0
Cc1cc[n+](-c2[nH]c(=O)sc2/C=N/N=C(\[O-])CCn2c3ccccc3c3ccccc32)cc1,-1.9
O=S(=O)(c1ccc(Br)s1)N1CCC2(CC1)OCCO2,-3.3
COc1ccc(C(=O)Nc2ccc3nc(C)sc3c2)cc1OC,2.1
O=C(c1cccc(Cl)c1)N1CCN(C(=O)c2ccco2)CC1,-2.5

Carrying on.
molecule	STK33 kinase inh
COc1ccc(/C=N/NC(=O)c2cc(C)n(-c3ccccc3)c2C)cc1OC	-1.6
COc1ccc(OCCN2CCN(C(=O)c3ccc(OC)c(OC)c3)CC2)cc1	-0.2
CCOC(=O)N1CCN(C(=S)NC(=O)c2cc(Br)ccc2Cl)CC1	-0.5
COc1ccc(N(CC(=O)N2CCN(c3ccc(F)cc3)CC2)S(=O)(=O)c2c(C)n[nH]c2C)cc1	2.1
O=C(/C=C/c1cccs1)N1CCCCC1	-0.7
O=C(Nc1ccc(N2CCN(C(=O)c3ccc(Cl)cc3)CC2)cc1)c1cccs1	1.9
CC1CCN(Cc2ccc(-c3nnn(CC(=O)NC4CCCCC4)n3)cc2)CC1	-4.6
CCNS(=O)(=O)c1ccc2c3c(cccc13)C(=O)N2	-0.7
Cn1c(SCC(=O)Nc2ccc(N3CCOCC3)cc2)nnc1-c1ccccc1F	-1.0
C=C1CCN(c2ccc(C(=O)NCc3ccccc3)cc2[N+](=O)[O-])CC1	-0.8
O=C(COc1ccccc1Cl)Nc1ccccc1C(=O)NC1CC1	-0.3
CC(OC(=O)c1ccc(NC(=O)CC#N)cc1)C(=O)Nc1ccc(Oc2ccccc2)cc1 (stereo not given)	-1.3
C=CCSc1nc2c(c(=N)n1CC=C)C1CCCC1S2 (stereo not given)	-0.7
Cc1ccc(-c2nnn(CC(=O)N(CC3CCCO3)C(C(=O)NC3CCCC3)c3ccc(O)cc3)n2)o1 (stereo not given)	0.1
O=C(COc1ccc2c(-c3ccccc3)cc(=O)oc2c1)NC1CCS(=O)(=O)C1 (stereo not given)	0.7
c1ccc(-c2nnc(CSc3nc4ccccc4[nH]3)o2)cc1	8.1
CC(=O)N1CCOc2ccc(S(=O)(=O)N3CCC(C(=O)Nc4ccc(C)c(C)c4)CC3)cc21	-0.3
COC(=O)CN1C(c2ccc(Cl)cc2)=Nc2ccc(Cl)cc2C1c1ccccc1 (stereo not given)	0.2
CCCn1c(SCC#N)nc2c(c1=O)C1(CCCC1)Cc1ccccc1-2	-0.7
CCC(NC(=O)CCC(=O)N1CCN(S(=O)(=O)c2ccc(C)cc2)CC1)c1ccc(C)cc1 (stereo not given)	-1.2
CC1CCc2c(nc3ncnn3c2N2CCN(c3ccccc3)CC2)C1 (stereo not given)	-0.9
N#Cc1ccc(CN2CCN(C(=O)c3ccccc3)CC2)c(Cl)c1	-1.7
COc1ccc(/C=N/Nc2nc3ccccc3o2)cc1OC	0.3
Cc1ccc(SCc2ccc(C(=O)N3CCCC3)cc2)cc1	-0.9
CCOc1ccccc1N1CCN(S(=O)(=O)c2cccc3nsnc23)CC1	-2.7
CCOc1ccccc1NC(=O)Cn1[nH]c(=O)c2ccccc2c1=O	-1.0
O=C1[C@H]2[C@@H](c3ccc(Cl)cc3)N3C(=O)N(c4cccc(Cl)c4)C(=O)[C@@]3(Cc3ccccc3)[C@H]2C(=O)N1C1CCCCC1	-1.2
CCN(Cc1ccccc1)C(=O)c1cccc(S(=O)(=O)N2CCN(Cc3ccccc3)CC2)c1	-5.7
COc1ccc(CCCc2n[nH]c(=S)n2C)cc1C	-3.2
COc1cc(C(=O)Nc2ccc(NC(=O)C(C)C)nc2)cc(OC)c1OC	-1.1
CCSc1ncc(Cl)c(C(=O)Nc2ccccc2F)n1	-0.9
CC(OC(=O)CN(C)S(=O)(=O)c1ccc(Cl)cc1)C(=O)Nc1cccc(Cl)c1 (stereo not given)	0.2
Cc1cccc(-n2nc3c(c2NC(=O)C(C)C)CS(=O)(=O)C3)c1C	-1.4
CC(C)Cn1c(N)c(C(=O)NCc2cccs2)c2nc3ccccc3nc21	0.6
O=C(N/C(=C/c1cccc([N+](=O)[O-])c1)C(=O)N1CCCCC1)c1cccs1	-1.9
CCCCCC(=O)c1ccc(O)cc1O	-3.1
COc1ccc(-c2nc(SCC(=O)N(CC(C)C)c3c(N)n(Cc4ccccc4)c(=O)[nH]c3=O)n[nH]2)cc1	-0.2
Cc1ccccc1OCCn1cc(C(=O)O)c2ccccc21	-1.8
Cc1c(C(=O)NC(C(C)C)C(C)C)cccc1[N+](=O)[O-]	-3.8
O=C(N/N=C/C=C\c1ccco1)c1cccnc1	2.1
CCCSc1ccc([C@H]2N[C@@](CC(C)C)(C(=O)OC)[C@H]3C(=O)N(C)C(=O)[C@@H]23)cc1	0.7
Cc1ccc(-c2c3c(=O)n(C)c(=O)n(C)c3cn2-c2ccccc2O)cc1	-2.3
CC(C)(C)NCc1cc(Cl)ccc1OCc1ccccc1F	1.0
CCCCN(CC)Cc1c(O)ccc2c(-c3ccccc3)cc(=O)oc12	-0.4
CC(NC(=O)c1cc2sccc2n1C)c1ccc2c(c1)OCCO2 (stereo not given)	-1.0
